# Screening results deposited in PubChem by several laboratories.
# INS promoter inh – TRM-6 insulin promoter activity inhibition; inhibition, % at 2 µM; TRM-6 cells (human fetal islet line), insulin promoter-eGFP reporter, imaging; reporter expression induced with tamoxifen; 0.9% of 130,000 active;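 active = inhibition above the mean plus 3 SD, with well images judged a real hit on visual review, cut at about 60% in these data, passing the limit was not always enough; inconclusive = inhibition over the cutoff but images rejected on review; inactive = inhibition not above the cutoff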
# HSV augment – HSV replication enhancement. maximum fold increase. AID 1956. HSV replication augmentation in cells, fold increase. 0.005% of 220,000 active;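 active = peak rise of 1.5-fold or more in the series; inconclusive = self-fluorescent or not available for retest; tested in PC3 cells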;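 note: first round at 10 µM; read as green reporter fluorescence; hits show the peak of a series up to 25 µM; 1 = signal of infected wells without compound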
# PKD1 inh – inhibitors of human PKD1 kinase; AID 797; inhibition, %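 (about 10 µM by stock and volumes)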; 0.056% of 200,000 active; Q15139; PKD1 kinase fluorescence polarization assay;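 active = inhibition of 50% or more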;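 note: controls were vehicle for no effect and a reference inhibitor for full effect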
# RGS16-Gao – modulates binding between human RGS16 and Galphao. O15492+P09471. bead-based flow cytometry RGS16-Galphao binding, fluorescence; actives lie on both sides. binding response (% of control), % at 10 µM. 0.38% of 220,000 active. AID 1441;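 active = below 25% or above 175%, edge rows of some plates excepted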;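 note: Galphao activated by GDP with aluminum fluoride before binding; 100% = wells without compound and 0% = beads without RGS; some results beyond the cut were filed as inactive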
# Target sequence (O15492 whole entry, looked up): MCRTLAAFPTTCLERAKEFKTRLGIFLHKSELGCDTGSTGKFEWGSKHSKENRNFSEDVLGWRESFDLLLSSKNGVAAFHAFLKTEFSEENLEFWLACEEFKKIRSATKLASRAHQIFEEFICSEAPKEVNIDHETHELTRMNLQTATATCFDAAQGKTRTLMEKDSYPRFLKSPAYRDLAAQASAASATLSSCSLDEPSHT
# Target sequence (P09471 whole entry, looked up): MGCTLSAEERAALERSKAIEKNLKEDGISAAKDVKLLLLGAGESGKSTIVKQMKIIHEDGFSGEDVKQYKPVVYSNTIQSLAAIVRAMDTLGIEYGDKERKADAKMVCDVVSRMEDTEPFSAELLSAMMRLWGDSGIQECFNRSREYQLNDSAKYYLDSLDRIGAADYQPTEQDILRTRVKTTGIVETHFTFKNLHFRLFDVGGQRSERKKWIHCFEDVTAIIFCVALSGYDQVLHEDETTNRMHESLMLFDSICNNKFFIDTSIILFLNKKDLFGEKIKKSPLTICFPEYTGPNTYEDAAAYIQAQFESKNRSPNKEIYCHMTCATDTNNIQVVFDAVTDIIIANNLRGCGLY
# GALR2 ag – agonists of human galanin receptor 2 (GALR2) | 0.48% of 140,000 active | AID 803 | GALR2-expressing cells, agonist activation read-out | activation, %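 (tested at 5 µM)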;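 active = above mean plus 3 SD of all compounds, about 5% in these data, not always enough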;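 note: 0% = vehicle buffer wells and 100% = reference agonist at full effect; tested in CHO reporter cells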
# Target sequence (O43603 whole entry, looked up): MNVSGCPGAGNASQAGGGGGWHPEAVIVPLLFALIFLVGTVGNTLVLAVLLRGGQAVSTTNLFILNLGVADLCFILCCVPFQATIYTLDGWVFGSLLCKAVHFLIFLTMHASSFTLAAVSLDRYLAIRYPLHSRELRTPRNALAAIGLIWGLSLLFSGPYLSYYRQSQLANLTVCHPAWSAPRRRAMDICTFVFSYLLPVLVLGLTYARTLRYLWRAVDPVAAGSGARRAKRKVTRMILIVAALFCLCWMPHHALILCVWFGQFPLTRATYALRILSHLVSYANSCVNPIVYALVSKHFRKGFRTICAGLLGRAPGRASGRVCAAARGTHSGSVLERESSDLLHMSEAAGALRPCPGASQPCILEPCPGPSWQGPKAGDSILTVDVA
# INS promoter inh cell count – further read-out of INS promoter inh, marked with its call; normalized cell count, %; measured here: cell count, toxicity; reference of the scale not given here;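 cells exposed to compound for 48 h; stained nuclei by imaging scaled within each plate; lower means fewer cells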
# HSV augment primary fold – second read-out of HSV augment, no call of its own (marks repeat the call); fold increase; compound at 10 µM; measured here: primary screen fold increase 10 uM; tested in PC3 cells;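 GFP signal in the first replicate; 1 = infected wells without compound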
# Numbers without * were called inactive; i = inactive; ? = inconclusive; . = not tested or not shown.
SMILES,INS promoter inh,INS promoter inh cell count,HSV augment,HSV augment primary fold,PKD1 inh,RGS16-Gao,GALR2 ag
O=C(CSc1n[nH]c(-c2cccnc2)n1)Nc1ccccc1,2,36,i,0.82,10,114,-1.0
Cc1ccc(-c2n[nH]c(=S)n2/N=C/c2c(C)[nH]n(-c3ccccc3)c2=O)cc1,35,120,i,0.94,-2,83,.
O=P(CCNCc1ccco1)(c1ccccc1)c1ccccc1,9,143,i,0.96,0,107,-1.7
CC(C)C(=O)Nc1nnc(CCc2nnc(NC(=O)C(C)C)s2)s1,49,94,i,1.1,-3,104,-0.3
COc1ccc(Cc2nn3c(Cn4nnc5ccccc54)nnc3s2)cc1,58,44,i,1,-8,103,-0.6
COc1cccc(CN(C(=O)c2cc3ccccc3oc2=O)C2CC2)c1,-3,62,i,0.72,-6,50,0.5
Fc1ccc(C(c2nnnn2C2CCCC2)N(Cc2ccco2)CC2CCCO2)cc1 (stereo not given),-68,112,i,1,-5,102,-2.3
Cc1cccc2cc(CN(Cc3ccc(F)cc3)C(=O)C(F)(F)F)c3nnnn3c12,7,139,i,0.84,-13,100,-2.0
COCCn1c(C)cc(C(=O)COC(=O)c2ccc(NC(=O)CC#N)cc2)c1C,6,137,i,1,5,103,-6.5
Cc1cc(NC(=O)OC(C)C)ccc1-c1ccc(NC(=O)OC(C)C)cc1C,.,.,i,0.97,.,98,.
COc1cc(C)ccc1S(=O)(=O)N1CCN(C23CC4CC(CC(C4)C2)C3)CC1,-42,70,i,0.98,-7,101,0.2
CCN(CC)C(=O)CC(c1ccc(N(C)C)cc1)c1c(O)cc(OC)cc1OC (stereo not given),.,.,i,1,.,103,.
Cc1ccc(C)c(S(=O)(=O)Nc2ccccc2C(=O)Nc2ccc(S(=O)(=O)Nc3ncccn3)cc2)c1,-22,101,i,1.1,-2,112,-0.8
CCC(NC(=O)/C(=C\c1ccc2c(c1)OCO2)NC(C)=O)C(=O)O (stereo not given),-47,94,i,0.96,2,103,-1.3
COc1cccc(NC(=O)CCS(=O)(=O)c2cccs2)c1,-39,71,i,0.98,-7,104,-0.7
COc1ccc(NC(=O)COC(=O)CCCc2c[nH]c3ccccc23)cc1,-13,86,i,0.92,-1,99,-1.5
CSCCC1NC(=O)N(CC(=O)Nc2c(Cl)cc(Cl)cc2Cl)C1=O (stereo not given),-26,134,i,0.97,-3,99,-3.4
Cc1ccccc1N(CC(=O)NCCSC1CCCCC1)S(=O)(=O)c1ccccc1,-74,110,i,0.83,-3,100,-2.9
O=C(Nc1ccccc1)N1CCc2ccccc21,-81,71,i,0.9,6,97,-2.5
COc1ccc(C2=C(C)CC(C)(C)NC2=O)cc1OC,.,.,i,1.1,3,94,-1.0
CCS(=O)(=O)c1ccc2oc(SCC(=O)NCCc3ccc(F)cc3)nc2c1,0,80,i,1.2,0,100,.
O=C(NC1CCS(=O)(=O)C1)c1c(NC(=O)C2COc3ccccc3O2)sc2c1CCCC2 (stereo not given),30,70,i,0.91,2,106,-0.6
C=CCOC(=O)CN1C(=O)c2ccccc2C1=O,37,128,i,1,1,199,-1.6
Cc1ccc(-c2ccc(NC(=O)C3C4C=CC(C4)C3C(=O)O)cc2)o1 (stereo not given),-7,90,i,0.74,-11,102,-2.3
Cc1ccccc1OCc1n[nH]c(=S)n1-c1ccccc1,.,.,i,1,3,102,.
# Next part
SMILES,INS promoter inh,INS promoter inh cell count,HSV augment,HSV augment primary fold,PKD1 inh,RGS16-Gao,GALR2 ag
Cc1nnc(SCC(=O)c2cc(C)n(-c3c(C)n(C)n(-c4ccccc4)c3=O)c2C)s1,.,.,i,0.99,-4,83,-1.6
COc1ccc(OC(C)c2nnc(N)s2)cc1 (stereo not given),18,105,i,1,9,100,.
N#CC1=C(SCC(=O)c2cc3ccccc3oc2=O)NC(=O)C(C#N)C12CCCC2 (stereo not given),-6,166,i,1.3,-13,98,-2.0
CCN(CC)C(=O)C(=O)N/N=C/c1ccc(F)cc1,.,.,i,0.91,-9,103,.
O=P(O)(CN1CCCCCC1)C1Cc2ccccc2C1,.,.,i,1,.,100,.
COc1ccccc1-n1c(C)nc2cc(C(=O)NCCN3CCOCC3)ccc21,.,.,i,0.99,10,105,.
Cc1ccc(NC(=S)NC(=O)c2ccc(Br)o2)c(C)c1,.,.,i,1,3,102,.
CCOc1ccccc1CN1CCN(Cc2ccc(C)o2)C(CCO)C1 (stereo not given),-5,128,i,1,4,94,.
CCN(CC)C(=O)CN(C#N)c1nc(Cl)nc(N(C)C)n1,.,.,i,1,-5,102,.
CC(C)(C)NC(=O)c1cccc(NC(=O)Cc2cccs2)c1,.,.,i,0.98,-1,102,.
COC(=O)C1=C(N)Oc2cc(C)[nH]c(=O)c2C1c1ccc(Cl)cc1 (stereo not given),.,.,i,1.1,.,99,.
O=C(Nc1ccc(F)cc1)Nc1ccc(Cl)cn1,8,78,i,1.2,-9,107,-1.2
COc1cccc(NC(=S)N(CCCN2CCOCC2)C(C)c2cc3ccccc3o2)c1 (stereo not given),-33,125,i,0.9,-5,100,.
COc1cccc(OC)c1C(=O)NC(=S)Nc1ccc2c(c1)C(=O)N(C)C2=O,-33,109,i,0.89,12,93,1.3
CCn1cc(C(=O)NCCOC)c(=O)c2ccc(C)nc21,-21,108,i,0.73,-6,100,-1.3
Cc1ccc(C(O)(C(=O)NNS(=O)(=O)c2ccc(C)cc2)c2ccc(C)cc2)cc1,-21,119,i,1.1,-6,98,0.0
Cc1ccc(-c2cc(-c3ccco3)c3c(N)c(C(=O)NN)oc3n2)cc1,.,.,?,.,.,119,.
Cc1ccc(C)c(S(=O)(=O)N/N=C/c2cccnc2)c1,-30,136,i,1.1,-7,122,-0.3
Cc1oc2c(CN3CCOCC3)c(O)ccc2c(=O)c1-c1ccccc1,14,121,i,1.1,5,109,-2.2
Cc1cc(C)cc(NC(=O)C2CCCN(c3nc(C)cc(C)n3)C2)c1 (stereo not given),.,.,i,0.95,-3,97,1.7
CC1(C)CC(=O)c2sc(NC(=O)C3COc4ccccc4O3)nc2C1 (stereo not given),.,.,i,0.92,20,102,-1.7
COc1cccc(C2CC(=O)N3CN(c4cccc(Cl)c4C)CSC3=C2C#N)c1OC (stereo not given),.,.,i,0.86,1,68,-3.2
O=C(Cn1c(-c2cscn2)nc2ccccc21)Nc1ccc2ccccc2c1,-7,110,i,0.6,-2,103,0.0
Cc1noc2ncnc(Sc3ccccc3Cl)c12,.,.,i,1.1,-2,100,-1.7
COc1ccccc1NC(=O)c1ccc(NS(=O)(=O)c2ccc(F)c(F)c2F)cc1,-21,118,i,0.96,-8,94,0.0

# Part of the list above, with values under each structure.
# Values run as follows: INS promoter inh, INS promoter inh cell count, HSV augment, HSV augment primary fold, PKD1 inh, RGS16-Gao, GALR2 ag
> Cc1cc(C)cc(NC(=O)C2CCCN(c3nc(C)cc(C)n3)C2)c1 (stereo not given)
 : ., ., i, 0.95, -3, 97, 1.7
> Cc1ccc(-c2ccc(NC(=O)C3C4C=CC(C4)C3C(=O)O)cc2)o1 (stereo not given)
 : -7, 90, i, 0.74, -11, 102, -2.3
> CCN(CC)C(=O)CC(c1ccc(N(C)C)cc1)c1c(O)cc(OC)cc1OC (stereo not given)
 : ., ., i, 1, ., 103, .
> O=C(NC1CCS(=O)(=O)C1)c1c(NC(=O)C2COc3ccccc3O2)sc2c1CCCC2 (stereo not given)
 : 30, 70, i, 0.91, 2, 106, -0.6
> CCN(CC)C(=O)C(=O)N/N=C/c1ccc(F)cc1
 : ., ., i, 0.91, -9, 103, .
> Cc1ccc(C)c(S(=O)(=O)N/N=C/c2cccnc2)c1
 : -30, 136, i, 1.1, -7, 122, -0.3
> COc1cccc(OC)c1C(=O)NC(=S)Nc1ccc2c(c1)C(=O)N(C)C2=O
 : -33, 109, i, 0.89, 12, 93, 1.3

# Copied from the list:
# In RGS16-Gao, COc1ccc(OC(C)c2nnc(N)s2)cc1 (stereo not given) is listed with 100
# In INS promoter inh cell count, O=C(Cn1c(-c2cscn2)nc2ccccc21)Nc1ccc2ccccc2c1 is listed with 110
# In PKD1 inh, COc1ccccc1NC(=O)c1ccc(NS(=O)(=O)c2ccc(F)c(F)c2F)cc1 is listed with -8
# In HSV augment primary fold, O=P(O)(CN1CCCCCC1)C1Cc2ccccc2C1 is listed with 1

# Continued:
SMILES,INS promoter inh,INS promoter inh cell count,HSV augment,HSV augment primary fold,PKD1 inh,RGS16-Gao,GALR2 ag
COc1ccc(-c2csc(Cc3nnc(N4CCOCC4)n3-c3ccccc3)n2)cc1OC,-10,107,i,1,1,108,-0.2
Cc1occc1C(=O)NCc1ccco1,23,139,i,1.1,1,95,0.4
O=C(C[n+]1cc(-c2ccc(F)cc2)n2c1CCC2)N1c2ccccc2Sc2ccccc21,34,127,i,0.88,0,104,-1.1
CC(=O)c1sc(NC(=O)c2ccccc2)nc1-c1ccccc1,28,147,i,1,1,107,.
COC(=O)Cc1csc(/N=C/c2c(O)n(-c3cccc(C(F)(F)F)c3)c(=O)c3ccccc23)n1,-43,94,i,1,1,71,-0.2
CC12CCC(C)(c3nc4ccccc4nc31)C2(C)C,.,.,i,1.1,-1,109,.
CCN(CC)C(CNS(=O)(=O)c1ccc(Cl)cc1)c1ccccc1 (stereo not given),.,.,i,0.99,-1,97,.
O=C(CCc1ccc(Oc2cc([N+](=O)[O-])cc([N+](=O)[O-])c2)cc1)N1CCCCCC1,-57,118,i,1,6,85,-1.9
CC(=O)Oc1c(C)c(OC(C)=O)c2c(c1C(C)=O)OC1CC(=O)C(C(C)=O)=C(O)C21C (stereo not given),.,.,i,0.99,.,100,.
COC(=O)c1c(NC(=O)C2CC(=O)NN2Cc2ccccc2)sc(C)c1C (stereo not given),-30,100,i,0.99,-3,115,-0.1
CCn1c(C(=O)N2CCCC(C(=O)NCCCc3ccccc3)C2)cc2sccc21 (stereo not given),-11,92,i,0.9,-2,112,-0.5
Cc1ccc2nc(-c3ccc(NC(=O)COC(=O)c4ccc(=O)[nH]c4)cc3)sc2c1,-3,80,i,0.99,-7,109,-0.8
COc1ccc(NC(=O)c2coc3ccccc23)cc1OC,-11,68,i,0.75,0,99,-2.0
Cc1cc(-c2ccccc2)nc(N(C)NC(=O)C2CC2)c1S(C)(=O)=O,-82,97,i,1,-5,107,.
CCOc1ccc(CN(C)CC(=O)Nc2ccc(N3CCOCC3)cc2)cc1OC,-53,122,i,1.1,2,99,0.3
O=C(NC(=S)Nc1cc(S(=O)(=O)N2CCOCC2)ccc1N1CCOCC1)c1ccco1,.,.,i,0.65,-8,103,.
CC(C)(C)OC(=O)[C@H](Cc1ccccc1)NC(=O)c1[nH]cnc1C(=O)Nc1cccc(Cl)c1,.,.,i,0.88,.,103,.
C/C(Nc1ccccc1C(F)(F)F)=C1/CCOC1=O,.,.,i,0.98,-4,97,.
COc1ccc2[nH]c(C(=O)Nc3ccc(F)cc3Br)cc2c1,.,.,i,0.83,.,101,.
Cc1nc(N(C)C)c2sc(=S)n(-c3ccccc3)c2n1,.,.,i,0.93,-5,98,.
O=C(c1ccsc1)N1CCN(C(=O)c2cccs2)CC1,13,87,i,0.8,-8,100,-0.3
COc1ccccc1C1CC(c2ccccc2)=NN1S(=O)(=O)c1ccccc1 (stereo not given),.,.,i,1.1,.,82,.
Cn1c(NC(=O)c2ccco2)c(-c2ccc(Cl)cc2)c(=O)c2ccccc21,-14,147,i,0.7,-12,104,-3.8
O=C(CCN1C(=O)COc2ccccc21)N1CCN(c2ccccc2)CC1,-80,85,i,1,-3,99,.
S=C(NCc1ccco1)Nc1ccccc1,.,.,i,0.98,0,118,.
# (continued)
SMILES,INS promoter inh,INS promoter inh cell count,HSV augment,HSV augment primary fold,PKD1 inh,RGS16-Gao,GALR2 ag
CCc1ccc(OCC(=O)Nc2ccc(N3CCN(S(C)(=O)=O)CC3)cc2)cc1,.,.,i,0.94,-2,96,.
COc1ccccc1NC(=O)c1ccc(CN2CCOCC2)cc1,.,.,i,1,-2,103,-1.4
O=C1NC(=S)N/C1=C/c1ccc(Oc2ccc(C(F)(F)F)cc2[N+](=O)[O-])c(Cl)c1,.,.,i,1.2,2,99,0.8
COc1cccc(CCc2nnc(CCC(=O)NC(C)Cc3cccs3)o2)c1 (stereo not given),.,.,i,1,.,99,.
O=C1CN(C(=O)COC(=O)CNC(=O)c2ccccc2)c2ccccc2N1,13,134,i,1,-15,117,-0.6
CC(=O)Nc1ccc(C2(c3ccc(NC(C)=O)cc3)C(=O)Nc3ccccc32)cc1,44,64,i,0.98,4,97,.
O=C(NCCN1CCN(c2ccccc2)CC1)C1CCN(S(=O)(=O)c2cccc3nsnc23)CC1,-62,84,i,0.98,-2,102,.
c1ccc(-c2nnc(-c3ccncc3)nc2-c2ccccc2)cc1,.,.,i,0.97,6,100,.
NS(=O)(=O)c1ccc(Nc2nc3ccccc3nc2NS(=O)(=O)c2cccc([N+](=O)[O-])c2)cc1,.,.,i,0.88,-6,103,.
